AID504770: growth inhibition of E. coli YBA685, primary screen, V. cholerae RctB inhibitors; hit rate 0.27% among 130,000; z-score (test concentration not listed); E. coli YBA685 rctB-dependent plasmid, OD600 growth, 3 h; stronger effect = lower value;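 active = z-score under -2 on both plates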;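 also: wells of about 30 µL received 100 nL stock; score is relative to mean and SD of the test wells; the first replicate is given; strong numbers were not always called active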
Ba CapD inh: Bacillus anthracis CapD inhibitors, primary screen, biochemical, fluorescence intensity | purified CapD enzyme, fluorescence intensity read-out; stronger effect = lower value; some hits fall short of the stated cut | z-score (test concentration not listed) | hit rate 0.23% among 140,000 | CapD gamma-glutamyltranspeptidase (Bacillus anthracis Ames Ancestor);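 active = z-score under -4 in either of two replicates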;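 also: stock transfer was 100 nL into about 40 µL; score is relative to mean and spread of the plate; one replicate is shown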
Active calls of the source: *; nt = no result given; & = joins results of further samples.

SMILES	AID504770	Ba CapD inh
CCCOC(=O)c1cccc(-c2ccc(/C=C3\C(=O)N(c4ccc(S(N)(=O)=O)cc4)N=C3C(F)(F)F)o2)c1	nt	0.69
O=[N+]([O-])c1ccc(Cl)c(C2N(c3ccccc3)CCN2c2ccccc2)c1	nt	-0.34
Cc1ccc(C(=O)c2coc3c2cc(O)c2ccccc23)cc1	2.8	0.005
O=C1c2ccc(Oc3ccc4c(c3)C(=O)N(c3ncccn3)C4=O)cc2C(=O)N1c1ncccn1	-0.45	nt
Cc1[nH][nH]c(=O)c1C(c1ccncc1)C(C#N)C#N (stereo not given)	-1.9	0.52
COC(=O)CNC(=O)c1cccc(F)c1	0.4	0.35
FC(F)(F)Sc1ccc2noc(-c3ccccc3)c2c1	-0.25	nt
CCNC(=O)OCc1ccc(Sc2ccc(Cl)cc2)c([N+](=O)[O-])c1	nt	-0.7
CCCCN(C)S(=O)(=O)c1ccc(-c2ccc(=O)[nH]n2)s1	-1	0.17
Cc1cc(=O)oc2c1c(-c1ccccc1)nn2-c1ccccc1	0.25	0.72
COc1cccc(OC)c1C(=O)Oc1cccc2ccc(C)nc12	0.2	0.36
CC1=CC(C)(C)N(C(=O)Nc2ccc(C)cc2)c2ccccc21	2.6	-1.6
CCOC(=O)c1cc2c(=O)n3ccccc3nc2n(Cc2ccccc2)c1=NC(C)=O	-0.05	nt
Oc1ccc(-c2nc(-c3ccccc3)c(-c3ccc(O)cc3)[nH]2)cc1	0.05	112
Nc1ccccc1C(=O)Nc1cc(C(F)(F)F)cc(C(F)(F)F)c1	nt	94
C=CCn1c(=N)c(-c2nc3ccccc3s2)cc2c(=O)n3ccccc3nc21	2	nt
CS(=O)(=O)Nc1ccccc1C(=O)OCC(=O)N1CCC(c2ccccc2)=N1	0.25	nt
CCOC(=O)CSc1nnc(OCC)n1-c1ccccc1	-0.35	0.43
CCOc1ccc(C(=O)COC(=O)Cc2n[nH]c(=O)c3ccccc23)cc1	0.3	nt
CCN1CCN(c2nnc(-c3ccccc3)c3ccccc23)CC1	0.4	0.12
O=C(CC(O)(c1ccccc1)C(F)(F)F)c1ccccc1 (stereo not given)	-0.8	-0.41
Cc1ccc(N(C(C)C(=O)O)S(C)(=O)=O)cc1C (stereo not given)	-0.55	-0.4
CN(C)S(=O)(=O)c1ccc(NC2Sc3ccccc3NC2=O)cc1 (stereo not given)	0.3	nt
CN1C(=O)N(C)C2C1N(C)C(=O)N2C (stereo not given)	nt	0.16
COC(=O)c1ccc(-c2ccco2)n1Cc1cccc(F)c1	-0.15	13
COc1ccc(C2=NN(C(=O)CCC(=O)O)C(c3ccc(Cl)cc3Cl)C2)cc1 (stereo not given)	nt	8.4
CCCc1cc(=O)[nH]c(SCc2nc3ccccc3[nH]2)n1	-0.2	0.64
CC1CCN(Cc2ccc(NC(=O)C3CCN(c4nnc(-n5cccc5)s4)CC3)cc2)CC1	-0.9	-0.73
COc1ccccc1N1CCN(c2ncnc3sc(C(=O)O)c(C)c23)CC1	nt	-0.26
O=C(CC1SC(=O)N(CN2CCOCC2)C1=O)Nc1cccc(O)c1 (stereo not given)	0.9	-0.46
COc1cc(NC(=O)c2nn3c(c2Cl)NC(c2ccco2)CC3C(F)(F)F)cc(OC)c1OC (stereo not given)	nt	0.36
COC(=O)C1=CN(Cc2ccc(OC)cc2)C=C(C(=O)OC)C1c1cc2c(cc1Br)OCO2	nt	29
COc1ccc(OC(C)C(=O)NCCC2=CCCCC2)cc1 (stereo not given)	-0.5	0.41
CC(C)CCN1CC(C(=O)NCc2ccccc2)CC1=O (stereo not given)	-0.35	0.24
CCN1CCN(c2nc(-c3ccc([N+](=O)[O-])cc3)nc3ccccc23)CC1	nt	-0.2
CC1CCCC(C)N1C(=O)CSc1nnc(-c2ccccc2)n1N (stereo not given)	-0.5	0.87
CC(C)(C)C(=O)N1CCC(c2nc(C3(c4ccc(Cl)cc4Cl)CC3)no2)CC1	nt	-0.04
COC(=O)c1ccn(C(=O)c2ccnn2C)n1	-0.7	-0.54
CS(=O)(=O)c1sc(C(=O)Sc2ccccc2)c2c1C=CCC2	-0.4	-0.41
COc1cc(CN2CCN(CCOC(=O)N3CCN(c4ccc(C)c(C)c4)CC3)CC2)cc2c1OCO2	nt	-0.72
O=C(CCC(=O)N1CCSc2ccccc21)NC1CCCC1	-0.3	0.22
CC(C)(C#N)NCc1ccco1	-0.4	nt
O=C(Cn1c(=O)oc2ccccc21)NC1CCCc2ccccc21 (stereo not given)	0.9	-1
Cc1cccc(CCNC(=O)C2CCN(S(=O)(=O)c3ccc4[nH]c(=O)ccc4c3)CC2)c1	1.4	0.83
Cc1c(Cl)cccc1-n1ncnc1-c1ccc(N(C)C)cc1	0.1	-0.62
Cc1nn(C)c(NC(=O)c2ccc(Cl)cc2Cl)c1Br	nt	0.11
O=C(CCCN1C(=O)CCC1=O)Nc1ccc2c(c1)OCCO2	2	0.03
O=C(c1cnc2sccn2c1=O)N(Cc1ccccc1)c1ccccn1	-0.75	-0.18
CCCC(=O)Oc1ccc(N(C(=O)CCC)S(=O)(=O)c2cccs2)cc1	0.15	-1.6
CN(C)S(=O)(=O)c1cc(C(=O)O)c(N2CCOCC2)cc1Cl	-0.8	0.045
Cc1cccc(OCCCn2c(=O)sc3ccccc32)c1	0.45	1.3
Cc1n[nH]c(C)c1CC(=O)NCCC1=CCCCC1	0.35	-0.12
CCOC(=O)c1c(CC(C#N)(c2ccccc2)c2ccccc2)oc2ccc(OC)cc12	0.35	0.67
Cn1c2c(c(=O)n(C)c1=O)C(c1ccc(OCc3ccccc3)cc1)C1=C(N2)c2ccccc2C1=O (stereo not given)	nt	-0.82
COc1cc(C(=O)OCC(=O)c2cc(C)n(C)c2C)cc(NC(=O)c2ccco2)c1OC	0	nt
CNc1cc(CS(=O)c2ccccc2)nc(-c2ccccc2)n1 (stereo not given)	0.35	-0.4
COCSc1ccc(C(=O)OCC(=O)c2ccc(Br)cc2)cc1	-0.6	-0.23
O=c1c(=NNc2nn[nH]n2)c(=O)c2ccccc12	-1.4	-1.5
CC(=O)NC(=O)c1nnn(-c2ccc(C)cc2)c1NC(C)=O	-0.9	-0.62
O=C(O)c1cccc(S(=O)(=O)NNc2ccccc2C(F)(F)F)c1	1.1	nt

More entries.
SMILES	AID504770	Ba CapD inh
CCOC(=O)Cn1c(=O)n(Cc2ccc(F)cc2)c(=O)c2cccnc21	-0.55	3
Cc1ccc(C(=O)N/C(=C\c2ccc3c(c2)OCO3)C(=O)Nc2ccc(Br)cc2)cc1C	nt	2.1
Cc1cccc(C)c1N(C)S(=O)(=O)c1ccc2[nH]cc(C(=O)N3CCN(Cc4ccccc4)CC3)c(=O)c2c1	nt	2
Nc1ccc(-c2ccnc(-c3ccc(N)cc3)n2)cc1	nt	33
CC1CCCCC1N1CN=C(Nc2nc3ccccc3s2)NC1 (stereo not given)	-0.3	-0.015
CC(Oc1ccccc1)C(=O)N1CCN=C1SCc1ccccc1 (stereo not given)	-0.2	-0.92
COc1cc(-c2nc3ccccc3c(=O)n2NC(=O)Cn2nc(C)c([N+](=O)[O-])c2C)cc(OC)c1OC	nt	-1.4
O=C(Oc1ccccc1)Oc1ccc2oc(=O)sc2c1	0.95	-0.82
Cc1cc(=O)n(Cc2ccccc2)c(=O)n1Cc1ccccc1	-1	nt
O=C(c1nn2c(C(F)(F)F)cc(-c3ccco3)nc2c1Br)N1CCOCC1	nt	-0.63
CCOC(=O)c1sc(NC(=O)c2ccc(S(=O)(=O)N3CCc4ccccc43)cc2)nc1C	nt	-0.56
CN(C)S(=O)(=O)c1ccc(C(=O)OCC(=O)c2ccc3c(c2)NC(=O)CO3)cc1	0.05	nt

Five compounds drawn at random from those above:
SMILES	AID504770	Ba CapD inh
CS(=O)(=O)Nc1ccccc1C(=O)OCC(=O)N1CCC(c2ccccc2)=N1	0.25	nt
CC(C)(C)C(=O)N1CCC(c2nc(C3(c4ccc(Cl)cc4Cl)CC3)no2)CC1	nt	-0.04
C=CCn1c(=N)c(-c2nc3ccccc3s2)cc2c(=O)n3ccccc3nc21	2	nt
Oc1ccc(-c2nc(-c3ccccc3)c(-c3ccc(O)cc3)[nH]2)cc1	0.05	112
CCOC(=O)c1c(CC(C#N)(c2ccccc2)c2ccccc2)oc2ccc(OC)cc12	0.35	0.67

Compound profiles (already shown):
CN(C)S(=O)(=O)c1ccc(C(=O)OCC(=O)c2ccc3c(c2)NC(=O)CO3)cc1 as listed: AID504770: 0.05; Ba CapD inh: nt
CCOC(=O)Cn1c(=O)n(Cc2ccc(F)cc2)c(=O)c2cccnc21 as listed: AID504770: -0.55; Ba CapD inh: 3
CCOC(=O)c1sc(NC(=O)c2ccc(S(=O)(=O)N3CCc4ccccc43)cc2)nc1C as listed: AID504770: nt; Ba CapD inh: -0.56

Following part.
SMILES	AID504770	Ba CapD inh
Cc1ccc(S(=O)(=O)N2CCN(S(=O)(=O)c3c(C)n[nH]c3C)CC2)cc1C	-0.4	nt
COc1cc(OC)c(CN2CCN(C(=O)OCCc3scnc3C)CC2)c(OC)c1	nt	0.45
O=C(Nc1ccccc1)OCC1CCCN2CCCCC12 (stereo not given)	-0.95	0.14
COC(=O)Nc1ccc(S(=O)(=O)N2CCCc3ccccc32)cc1	-0.7	1.5
COc1ccc(-c2nc3cc(NC(=O)c4ccccc4)ccc3o2)cc1	1.4	1.9
O=S(c1nc2ccccc2s1)N1CCOCC1 (stereo not given)	-1.1	-0.025
COc1ccc(-c2nnn(CC(=O)N(CC(=O)NC3CCCC3)c3ccccc3)n2)cc1OC	-0.85	nt
CCOC(=O)C1(c2csc(N)n2)COC(=O)C1 (stereo not given)	0	0.02
CCOc1ccccc1OCCCC(=O)Nc1cccc(-n2cnnn2)c1C	-0.15	nt
Cc1nc2ccc(C(=O)O)cc2c2c1CC(C)S2 (stereo not given)	-0.35	nt
Cc1ccc2nc3c(cc2c1)c(=O)oc1ccccc13	-0.9	0.42
COc1cc(NC(=O)c2ccc3c(=O)n(Cc4ccccc4)c(=S)[nH]c3c2)cc(OC)c1OC	nt	-1.1

(continued)
Molecule | AID504770 | Ba CapD inh
O=C(C1CC(c2ccccc2F)=NO1)N1CCCc2ccccc21 (stereo not given) | -0.1 | 0.41
O=C(O)CCCN1C(=O)C2C3C=CC(C3)C2C1=O (stereo not given) | 0.2 | -0.31
Cc1cccc(N(CCOC(=O)c2ccccc2)C2=NS(=O)(=O)c3ccccc32)c1 | nt | 0.15
NC(=NC(=O)c1cccc(C(F)(F)F)c1)c1cccs1 | -0.4 | -1.1
COc1ccc(-c2cn3c4c(=O)n(C)c(=O)n(C)c4nc3n2Cc2ccccn2)cc1 | nt | 0.065
O=C(C1CCCN(S(=O)(=O)c2cnc[nH]2)C1)N1CCn2c1nc1ccccc12 (stereo not given) | 1 | 0.77
CCCc1cc(=O)[nH]c(SCC(=O)NCCc2ccccc2)n1 | -0.15 | -0.42
COc1ccc(CC(=O)N2CCC3(CC2)Nc2ccccc2S(=O)(=O)N3)cc1 | -0.3 | 2.9
COc1ccc(NC(=O)c2ccco2)cc1NC(=O)Cc1ccccc1 | -0.8 | -0.69
CC(C)C1C(=O)Nc2ccc(S(=O)(=O)NCCc3ccccc3)cc21 (stereo not given) | 0.35 | 2.8
O=C1Nc2ccc(S(=O)(=O)NCc3ccccn3)c3cccc1c23 | -0.65 | 26
COc1ccc(C2CNC(=O)C2)cc1 (stereo not given) | -0.95 | -0.27
O=C(c1ncoc1-c1ccc2ccccc2c1)N1CCN(c2ccccc2)CC1 | -0.3 | nt
[O-][n+]1c2c(nn1-c1ccccc1Cl)-c1nonc1CC2 | -0.85 | 0.095
COc1ccc(CNS(=O)(=O)c2cc(C)ccc2OC)c(OC)c1 | nt | 0.69
O=C(Nc1cccc(Cl)c1)/C(=C\c1cccnc1)NC(=O)c1cccs1 | 0.05 | 0.2
CC1(C)CNC(=O)CC(C)(C)N1 | 0.05 | 0.26
S=c1[nH]nc(-c2ccncc2)n1/N=C/c1cccnc1 | 0.2&-0.1 | 0.38&0.46
COc1cccc(/C=C(/C(=O)O)c2ccccc2)c1 | 0.3 | 1.3
COc1ccc(N2C(=O)CC(C(C)c3ccccc3)C2=O)cc1 (stereo not given) | -0.05 | 0.11
CCOC(=O)/C(=C(/C)N)C1CC(=O)N(c2ccccc2)C1=O (stereo not given) | -0.35 | -0.76
COc1cccc(Oc2ccc(C(F)(F)F)cc2Nc2nc3ccccc3o2)c1 | 0 | nt
S=C(Nc1ccc2c(c1)OCCO2)Nc1ccc2c(c1)OCO2 | -0.25 | -0.52
CCCCN1C(C)=CC(=C2C(=O)NC(=S)NC2=O)C=C1C | 0.7 | nt
CNC(=S)N1C2CCC1CC(NC(=O)NC13CC4CC(CC(C4)C1)C3)C2 (stereo not given) | -0.55 | nt
CCN(CC)c1ccc(C2(C(F)(F)F)NN(c3ccccc3)C(N)=C2C#N)cc1 (stereo not given) | 0 | 6.2
O=c1[nH]c(SCc2ccccc2)nnc1-c1ccccc1 | nt | -0.81
COc1ccc(/C=C/C(=O)Nc2nccs2)cc1OC | -0.3 | 4.7
CC(C)C(=O)Nc1nnc(SCC(=O)N2CCCc3ccccc32)s1 | -1.2 | -0.24
COc1ccc(CSC2=Nc3cc(Cl)ccc3SCC2)cc1 | nt | -0.42
CCOC(=O)c1ccc2c(c1)C(=O)N(c1cccc(C)c1)C2=O | 0.65 | 0.74
O=C(O)CCCN1C(=O)C2C3c4ccccc4C(c4ccccc43)C2C1=O (stereo not given) | 1.4 | nt
